From PubChem
RecA splice inh – Mtb RecA intein splicing inhibition; 0.75% of 290,000 active; inhibition, %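 (about 9 µM by stock and volumes)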; P9WHJ3; AID 2221; cell-free RecA intein splicing, fluorescence; in the data active = inhibition above about 30%; inconclusive = no clear call, values can overlap the other calls;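 note: 0% = vehicle wells and 100% = reference inhibitor control wells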
Target sequence (P9WHJ3 whole entry, looked up, canonical isoform): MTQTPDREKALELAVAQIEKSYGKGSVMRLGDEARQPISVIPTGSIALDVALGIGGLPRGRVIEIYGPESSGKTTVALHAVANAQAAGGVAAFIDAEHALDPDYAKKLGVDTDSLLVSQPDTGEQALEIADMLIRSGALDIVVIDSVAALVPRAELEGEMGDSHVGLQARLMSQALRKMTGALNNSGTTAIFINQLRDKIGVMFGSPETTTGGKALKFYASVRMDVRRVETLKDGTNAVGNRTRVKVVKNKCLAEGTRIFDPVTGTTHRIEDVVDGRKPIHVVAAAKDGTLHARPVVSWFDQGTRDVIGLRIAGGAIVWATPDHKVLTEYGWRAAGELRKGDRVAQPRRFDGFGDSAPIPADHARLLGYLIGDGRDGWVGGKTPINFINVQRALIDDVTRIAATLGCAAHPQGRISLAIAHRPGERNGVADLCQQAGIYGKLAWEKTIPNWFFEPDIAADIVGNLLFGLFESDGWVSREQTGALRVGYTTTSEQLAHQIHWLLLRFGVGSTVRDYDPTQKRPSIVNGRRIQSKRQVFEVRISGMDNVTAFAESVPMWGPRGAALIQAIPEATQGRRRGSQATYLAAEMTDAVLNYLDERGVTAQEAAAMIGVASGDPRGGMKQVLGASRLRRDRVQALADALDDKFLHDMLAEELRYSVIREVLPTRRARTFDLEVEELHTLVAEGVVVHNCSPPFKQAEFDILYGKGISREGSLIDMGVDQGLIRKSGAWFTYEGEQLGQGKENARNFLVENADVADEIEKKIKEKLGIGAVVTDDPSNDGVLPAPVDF
Arbovirus anti – arbovirus infection inhibition | arbovirus infection cell-based antiviral screen | inhibition, % at 10 µM | 0.37% of 200,000 active | AID 1251;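 active = inhibition from about 30%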;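 note: bluetongue infection of BSR cells; cell survival read as ATP light after 72 h; 0% = infected wells without compound and 100% = uninfected wells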
Mtb H37Rv – M. tuberculosis H37Rv growth inhibitors, H37Rv strain (AID 1626) | M. tuberculosis H37Rv growth inhibition; higher % means a stronger effect | one-dose inhibition, % at 10 µM; IC50 in µM for titrated hits | 0.95% of 220,000 active;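 active = confirmed in a dose series; inconclusive = inhibition above 80% but not taken into the dose series; inactive = below 80% or under 30% at every dose of the series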;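 note: bacteria incubated seven days before Alamar blue readout; 0% = bacteria only wells and 100% = bacteria with antibiotic wells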
YopH PTP inh – inhibitors of Yersinia enterocolitica YopH tyrosine phosphatase. fluorescence Ex485/Em525. inhibition, %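 (about 10 µM by stock and volumes)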. 0.16% of 140,000 active;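 active = inhibition of 50% or more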;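 note: controls were vehicle for no effect and minimum signal wells for full effect; inactives centre near -20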
Mtb betalactam – beta-lactam sensitization of Mtb H37Rv; M. tuberculosis H37Rv growth with meropenem, percent inhibition; hits of this screen are not shown here; inhibition, % at 25 µM; 0.27% of 330,000 active; AID 434955;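 active = about 74% or more and at least 40 points above the plate without the antibiotic, then above 30% in a dose series; inconclusive = first-round hits that could not be retested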;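 note: growth measured after seven days incubation then overnight dye step; 0% = bacteria only wells and 100% = bacteria with antibiotic; twin plates without the antibiotic show which effects depend on it; some results filed as inactive read as strong as hits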
Arbovirus anti repeat – second read-out of Arbovirus anti, no call of its own (marks repeat the call); inhibition, %; measured here: 10K subset replicate screen; many hits read low in the repeat;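 first of two repeat runs on a subset; 0% = infected and 100% = uninfected wells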
An asterisk follows results filed as active; ? = inconclusive; . = not tested or not shown.

SMILES | RecA splice inh | Arbovirus anti | Mtb H37Rv | YopH PTP inh | Mtb betalactam | others
CN(CC(O)COCc1ccc2c(c1)OCO2)C1CCCCC1 (stereo unspecified) | 0.0 | -11.2 | -6.4% | -21.5 | 3.2
CCOC(=O)C1=C(C)NC(=O)C1CC(=O)O (stereo unspecified) | -0.1 | -10.7 | -3.2% | -13.1 | -6.0
COC(=O)c1ccc(OS(=O)(=O)c2ccc(NC(C)=O)cc2)cc1 | -6.2 | 0.2 | 8.7% | 11.0 | 11.8
Cc1cc(Cl)c(S(=O)(=O)Nc2ccccn2)cc1OCC(N)=O | -4.2 | 2.3 | 10.5% | -18.9 | -8.6
O=C(CCNS(=O)(=O)c1ccc2[nH]c(=O)oc2c1)Nc1ccccc1 | -0.6 | . | . | . | -0.5
CC(C)N(CCCNC(=O)Cn1c(=O)c2cccn2c2ccc(F)cc21)Cc1ccccc1 | 1.2 | . | . | . | 1.7
O=C(Oc1cc2oc(=O)c3c(c2cc1Cl)CCCC3)c1cccs1 | -10.9 | -1.7 | -2.0% | -7.6 | 27.4
Oc1ccc(N2CCN(c3nc(-c4cccs4)nc4ccccc34)CC2)cc1 | 8.9 | . | . | . | 92.7
CC(C)CCNc1c(-c2cccs2)nc2ccccn12 | -43.3 | 6.4 | 1.1% | . | -3.4
CCN(c1ccc(NC(=O)COC(=O)CCC(=O)c2ccc(F)cc2)cc1)C(C)C | -1.0 | 14.3 | -7.9% | 2.8 | 87.9
CCCCN1C(=O)Nc2ccccc2S1=O (stereo unspecified) | 1.1 | -4.4 | 5.7% | -52.6 | 4.0
Cc1ccccc1NC(=O)NNC(=O)OC(C)(C)C | -0.6 | 3.6 | -2.5% | . | -2.1
COc1cccc(CNC(=O)CCC2CCCN(C/C=C/c3ccccc3OC)C2)c1 (stereo unspecified) | 13.6 | -9.9 | 14.1% | . | 67.2
CCOC(=O)N(NC(=O)C(O)(CC(C)C)CC(C)C)c1ccccc1 | . | -1.8 | 5.2% | -16.8 | -1.2
O=C(Nc1cccc(O)c1)c1cc(-c2ccccc2Cl)on1 | 2.1 | . | . | . | 94.5
CCOC(=O)N1CCC(NC(=O)CCC(=O)N2CCOc3ccc(Cl)cc32)CC1 | 0.4 | -1.7 | 3.2% | . | 9.5
Cc1nnc(SCC(=O)Nc2cccc(Cl)c2)n1CC1CCCO1 (stereo unspecified) | -0.5 | . | . | . | -1.9
CCN(CC)C(=O)Cn1ccc(NC(C)=O)nc1=O | -0.3 | . | . | . | 4.3
Nc1c(N=Nc2ccccc2F)c(=O)[nH]n1-c1ccccc1 | -0.6 | 6.7 | 2.0% | -13.8 | -7.2
Cc1cccc(N2CCN(C(=O)C3CCN(S(=O)(=O)c4c(C)noc4C)CC3)CC2C)c1 (stereo unspecified) | -1.1 | 16.0 | 4.9% | . | -8.3
Cc1nn(C)c(Sc2ccccc2N)c1[N+](=O)[O-] | -3.9 | 3.9 | 2.3% | . | 14.1
CC1CCc2c(sc3ncnc(NCCCOC(C)C)c23)C1 (stereo unspecified) | 3.9 | -2.7 | 15.4% | -16.3 | 85.7
CC(=NCCN1CCOCC1)C1=C(O)c2ccccc2C1=O | 0.2 | 5.4 | -5.7% | 2.3 | -5.9 | Arbovirus anti repeat=1.1
Cc1ccc(C(=O)Nc2ccc(N3CCN(C)CC3)nc2)cc1 | -0.1 | 14.5 | -8.8% | . | -1.6

By substructure, the compounds so far containing an NH in an aromatic ring
SMILES | RecA splice inh | Arbovirus anti | Mtb H37Rv | YopH PTP inh | Mtb betalactam | others
O=C(CCNS(=O)(=O)c1ccc2[nH]c(=O)oc2c1)Nc1ccccc1 | -0.6 | . | . | . | -0.5
Nc1c(N=Nc2ccccc2F)c(=O)[nH]n1-c1ccccc1 | -0.6 | 6.7 | 2.0% | -13.8 | -7.2

Continuation.
SMILES | RecA splice inh | Arbovirus anti | Mtb H37Rv | YopH PTP inh | Mtb betalactam | others
CC(=O)c1ccc(S(=O)(=O)Nc2cccc(-c3ccc4nncn4n3)c2)cc1 | -0.6 | 0.1 | 0.8% | . | -12.7
CC(C)N(Cc1nccn1C)C(=O)CCc1nnc(CCCc2ccccc2)o1 | 0.4 | 2.5 | -2.4% | . | -6.1
CC(=O)Nc1ccc(S(=O)(=O)N2CCC(C(=O)NC3CC3)CC2)cc1 | -2.4 | . | . | . | -7.4
COc1cccc(OCc2nnc(SC)n2C)c1 | -0.6 | 2.9 | -5.3% | 6.0 | -18.3
O=C(CN1CCCc2ccccc21)N/N=C/c1ccc(F)cc1F | -0.2 | . | -6.5% | . | -3.2
CC1CN(C(=O)c2cccc(S(=O)(=O)N3CCOCC3)c2)CC(C)O1 (stereo unspecified) | -1.2 | 4.6 | -11.8% | -30.4 | 3.2
COCCNC(=O)c1cccc(OC2CCN(Cc3cccc(C(C)=O)c3)CC2)c1 | 1.8 | . | . | . | -4.8
O=C(O)Cc1csc(Nc2cccc(Cl)c2)n1 | -0.7 | -1.8 | 6.2% | -15.9 | 99.4
Cc1cc(Cl)c2oc(C(=O)N3CCCCC3CCN3CCCC3=O)c(C)c2c1 (stereo unspecified) | 0.4 | . | . | . | 1.2
O=C(C1CC1)N1CCc2sccc2C1c1ccc(Cl)cc1 (stereo unspecified) | 12.7 | . | -3.9% | . | -6.9
CCC1C(=O)N=C(SCC(=O)Nc2nc3ccccc3s2)NC1=O (stereo unspecified) | -1.9 | 12.4 | -1.2% | . | 2.4
CCCc1cc(C(=O)Nc2nnc(C)s2)cs1 | -3.4 | 1.9 | 1.9% | -24.0 | 0.6
CCOC(=O)C1CCN(S(=O)(=O)Cc2ccc(Cl)cc2)CC1 | -1.4 | 10.9 | -4.1% | -12.0 | 5.4
COc1ccccc1N1CCN(C(=O)c2cc3cc(C)ccc3[nH]2)CC1 | -2.3 | . | . | . | 5.6
N#CCCCSc1nnnn1-c1cccc(Cl)c1 | 1.0 | -2.8 | . | -28.9 | -9.3
Cc1ccc(CN2CCN(Cc3c[nH]c4ccccc34)CC2CCO)o1 (stereo unspecified) | -2.0 | 7.3 | 1.0% | . | -2.1
C=C1CCN([C@H](C(=O)O)C(C)C)S(=O)(=O)c2ccccc21 | -3.0 | . | 1.4% | . | -8.5
CC(NC(=O)c1ccccc1OC(F)F)c1ccc(-n2ccnc2)cc1 (stereo unspecified) | 0.6 | . | . | . | -5.6
CCNC(=O)c1sc(=S)n(CC)c1N | -6.0 | 3.9 | -4.7% | -30.6 | -15.6
Cc1ccc(NC(=O)Cn2c(O)c(N=NS(=O)(=O)c3ccc(C)cc3)c3ccccc32)cc1 | 2.6 | -8.3 | -1.4% | -24.0 | -0.6
CCc1ccccc1NC(=S)N1CCCCCC1 | -0.8 | . | . | . | -5.7
N#C/C(=C\c1cccs1)C(=O)NCc1cccnc1 | 0.0 | -0.5 | -1.9% | -20.3 | -1.9
CN1CCN(Cn2cc(/C=C/C(=O)c3ccccc3)c3ccccc32)CC1 | 1.5 | -0.4 | 35.2% | -7.9 | 95.0
COc1ccc(Cl)cc1NC(=O)COC(=O)CCNC(C)=O | -1.2 | 0.8 | -0.9% | -22.8 | -6.7
CCC1=C2CC[C@H]3C(=O)N(CC)C(=O)[C@H]3[C@H]2[C@@]2(Cc3ccccc3)C(=NCc3ccccc3)OC(=O)N2C1=O | 3.0 | . | -4.1% | . | -5.8
COc1cccc(CC(NC(C)=O)C(=O)NC2CCN(c3nc(C)cc(C)c3C#N)CC2)c1OC (stereo unspecified) | 0.0 | 1.1 | -4.4% | -22.1 | -3.7
Cc1cc(Cl)ccc1NC(=O)CCCN1C(=O)CCC1=O | 1.5 | -10.7 | -2.1% | -14.1 | -12.5
CCOC(=O)C(CC)(CCC(=O)OC)c1csc(Nc2ccccc2O)n1 (stereo unspecified) | 1.9 | . | -7.7% | . | 0.1
Cc1ccc(-n2nc3c(c2NC(=O)C(C)C)CS(=O)(=O)C3)cc1 | 0.2 | . | . | . | ?
COc1ccccc1N1CCN(C(=O)c2cc3cc(Br)ccc3oc2=O)CC1 | -1.1 | 3.7 | 5.9% | -47.0 | 0.2 | Arbovirus anti repeat=5.4
Cc1ccc2nc(-c3ccccc3)cc(C(=O)NNC(=O)c3csc(N4CCOCC4)n3)c2c1 | 11.1 | . | . | . | 60.0
CC(SCc1ccc(C(=O)O)o1)c1ccc(C(=O)O)o1 (stereo unspecified) | -0.5 | . | . | . | 3.6
O=C(NC(=S)NCC1CCCO1)c1ccccc1F (stereo unspecified) | 2.6 | -0.6 | 4.1% | . | 2.5
CC(NC(=O)c1ccccc1)C(=O)N/N=C/c1cccc([N+](=O)[O-])c1 (stereo unspecified) | -1.1 | 16.5 | 2.8% | . | -3.4
COc1ccccc1OCCNC(=O)C(CCSC)NC(=O)c1ccccc1Cl (stereo unspecified) | 1.0 | . | . | . | -8.9
COc1cc(C(=O)Nc2ccccc2C(=O)NCc2cccnc2)cc(OC)c1OC | -2.7 | . | . | . | 4.0
Cc1ccc(N2C(=O)CC(N3CCN/C3=C3\CC/C(=C\c4ccccc4)C3=O)C2=O)cc1 (stereo unspecified) | -4.1 | 13.7 | -5.9% | . | -1.1
COc1ccc(CCN(C)CC(O)COc2c(C)ccc(C)c2C)cc1OC (stereo unspecified) | 1.7 | . | . | . | 6.0
O=C1NCCN(Cc2ccc(Cl)c(F)c2)C1CC(=O)N1CCc2ccccc2C1 (stereo unspecified) | 3.3 | 1.3 | -4.5% | . | -0.3
CC1=NN(c2cccc(Cl)c2)C(=O)C12CC(C)=C(C)CS2 (stereo unspecified) | 31.7* | -30.6 | . | -2.9 | 3.9
Cc1ccc(Cn2c(=S)[nH]c3ccccc3c2=O)cc1 | 2.5 | . | . | . | 6.9
CCS(=O)(=O)c1ncc(Cl)c(C(=O)Nc2ccc(S(=O)(=O)N(C)c3ccccc3)cc2)n1 | 97.1* | . | . | . | 10.9
Cc1cc(C)c(NC(=O)CN(C)S(=O)(=O)c2ccc3c(c2)n(C)c(=O)c(=O)n3C)c(C)c1 | 0.4 | . | . | . | 1.4
COc1ccc(C(=O)Oc2ccc(C(C)=O)cc2)c(OC)c1 | -4.5 | 8.3 | 2.3% | -37.4 | 50.8
c1ccc2sc(NC3=NCN(C4CCCCCC4)CN3)nc2c1 | . | 17.6 | 2.6% | -2.0 | 22.6
CSc1ccc(CCNC(=O)c2cc(-c3ccccc3)c(N3CCOCC3)s2)cc1 | 2.5 | . | . | . | 10.8
O=C(CCc1ccccc1)N1CCCN(C(=O)CCc2ccccc2)CC1 | -1.2 | 1.5 | -1.0% | -2.8 | -0.3
COC(=O)c1c(-c2cccs2)csc1NC(=O)c1cccnc1 | 2.7 | -4.0 | -1.2% | -29.6 | 68.2
CC1CN(S(=O)(=O)c2ccc(C(=O)Nc3nnc(-c4ccco4)o3)cc2)CC(C)O1 (stereo unspecified) | 1.3 | 8.8 | -6.8% | . | 22.6
COc1ccc(OC)c(S(=O)(=O)N2CCC(C(=O)NCCc3ccccc3)CC2)c1 | 1.7 | 6.7 | -2.2% | -143.9 | 3.8
COc1cccc(/C=c2\s/c(=C/C(=O)c3ccc(C)cc3)[nH]c2=O)c1OC | -2.0 | 0.9 | 17.8% | -12.0 | 2.2
O=C(COc1cccc2ccccc12)Nc1cc(Cl)ccc1C(=O)O | 9.8 | . | . | . | 8.1
NC(=O)C1CCN(c2c([N+](=O)[O-])cc(C(F)(F)F)cc2[N+](=O)[O-])CC1 | 1.6 | . | -2.3% | . | -9.7
Cc1onc(C(=O)Nc2c(C)n(C)n(-c3ccccc3)c2=O)c1[N+](=O)[O-] | -4.3 | . | 7.0% | . | 5.8
COc1ccc(N2C(=O)CC(N3CCN(S(=O)(=O)c4ccc(Cl)cc4)CC3)C2=O)cc1 (stereo unspecified) | -0.4 | 11.9 | -10.9% | . | -11.3
CCc1cc(S(=O)(=O)N2CCN(C(=O)c3ccco3)CC2)ccc1OC | 3.6 | . | . | . | 0.1
O=C1CC(=O)N(c2ccc3c(c2)OCO3)C(=O)N1 | -1.1 | -4.1 | 1.7% | -22.1 | 3.7
Cc1nc(-c2ccccc2)sc1C(=O)O | -0.2 | 0.9 | -5.2% | . | -5.0
Cc1cc(Cl)c(S(=O)(=O)NCC2CCCO2)cc1OCC(=O)NC1CCCCC1 (stereo unspecified) | -2.5 | 9.9 | -6.8% | -2.7 | -3.9
CCN1CCN(CC(=O)N2N=C(c3cccs3)CC2c2ccc(OC)cc2)C(=O)C1=O (stereo unspecified) | 2.4 | -2.4 | . | . | 4.6
CCc1nnc(NS(=O)(=O)c2ccc(N=Cc3c(O)n(-c4ccc(Cl)cc4)c(=O)[nH]c3=O)cc2)s1 | -22.7 | 0.7 | 7.0% | . | 72.1

Not all compounds are listed (hit frequency here may not be typical).
